HPGD block: HPGD (human) dehydrogenase inhibition. Potency, µM, for inactives: at the top dose activity change, negative = inhibition, most hits filed as inhibitors. 150,000 compounds, 4.3% hits. AID 894. purified HPGD, NADH fluorescence kinetic, PGE2 substrate; active = well fitted inhibition curve with a large enough effect (not every such curve was filed as active); inconclusive = small, poorly fitted or top-dose-only effect, or another doubt; inactive = no such curve, though single readings can be large or run the other way;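 further: top concentration of the series not given in the record; plate controls included wells without enzyme; inactives centre near -10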
Target sequence (P15428 whole entry, looked up): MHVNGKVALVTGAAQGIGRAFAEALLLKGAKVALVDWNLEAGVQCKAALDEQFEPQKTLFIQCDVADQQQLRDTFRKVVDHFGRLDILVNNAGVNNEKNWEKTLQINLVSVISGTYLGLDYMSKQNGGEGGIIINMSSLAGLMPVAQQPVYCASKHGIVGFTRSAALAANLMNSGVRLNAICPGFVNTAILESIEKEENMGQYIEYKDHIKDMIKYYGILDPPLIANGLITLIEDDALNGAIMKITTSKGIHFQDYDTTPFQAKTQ
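20 nM HPGD preincubated 15 min at room temperature with compound in 50 mM Tris-HCl pH 8, 0.01% Tween 20. Started with 1 mM NAD+ and 30 uM prostaglandin E2; NADH fluorescence (360/450 nm) read 5 times over 30-s intervals, last minus first.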
* = called active by the depositor; & = joins results of further samples. On the % scale 0 is the no-effect control and ±100 the full control effect; potency means the concentration at half of the fitted maximal effect.

What do the screens show for `COc1cccc(/C=C/C(=O)OCC(=O)NCC2CCCO2)c1` (configuration not stated)?
HPGD block: inconclusive

What do the screens show for `CCCCCn1c(CNC(=O)COC)nc2ccccc21`?
HPGD block: -5%

Results for CC1CC1C(=O)OCC(=O)NCc1ccccc1Cl (configuration not stated) ?
HPGD block: -16%

How did CCOC(=O)n1ccn(C)c1=S do in these assays?
HPGD block: -3%&-12%

Results for O=C1c2ccccc2C(=O)N1CCC(c1ccc(F)cc1)c1ccco1 (configuration not stated) ?
HPGD block: -9%

Results for CCOc1ccc(Oc2c(/C=N/NC(=O)COc3ccccc3OC)c(C)nn2-c2ccccc2)cc1 ?
HPGD block: -3%

What do the screens show for `CC#CCCc1nc2ccccc2c(=O)n1N`?
HPGD block: -10%

What do the screens show for `O=C(CSc1nnc(COc2cccc3ccccc23)o1)N1CCN(C(=O)c2ccco2)CC1`?
HPGD block: -9%

How did CCN(Cc1ccccc1)C(c1ccc(Cl)cc1)c1nnnn1C(C)(C)C (configuration not stated) do in these assays?
HPGD block: -3%

Results for CCCCN(C)Cc1c(C)[nH]c2ccc(C)cc2c1=O ?
HPGD block: -4%

Results for COc1ccc(C2C(C(=O)N3CCOCC3)=C(C)NC3=C2C(=O)CC(C)(C)C3)cc1O (configuration not stated) ?
HPGD block: -5%

What do the screens show for `CC(C)CN(CC(C)C)C(=O)CS(=O)(=O)Cc1ccccc1`?
HPGD block: -10%

What do the screens show for `CN(C)S(=O)(=O)Oc1ccccc1C(=O)Nc1cccc(C(F)(F)F)c1`?
HPGD block: -6%

How did COc1ccc(-c2oc(NC(=O)CCl)c(C#N)c2-c2ccc(OC)cc2)cc1 do in these assays?
HPGD block: -16%

Results for COc1ccc(/C=C/C(=O)OCC(=O)Nc2ccc(C)cc2)cc1S(=O)(=O)N1CCOCC1 ?
HPGD block: -2%

What do the screens show for `Cn1c(=O)c2c(c3ccccc31)OC(C)(C)CC2`?
HPGD block: inconclusive

How did CCCCn1c(SCc2nc3ccccc3s2)nc2ccccc2c1=O do in these assays?
HPGD block: -15%

Results for CCCNC(=O)NC1C(NC(=O)NCCC)N(C)C(=O)N1C (configuration not stated) ?
HPGD block: -2%

Results for Cc1sc2nc(N3CCOCC3)[nH]c(=O)c2c1-c1ccccc1 ?
HPGD block: -16%

How did N#C/C(=C\c1ccc(OCc2ccccc2)cc1)C(=O)Nc1nc2c(s1)CCN(Cc1ccccc1)C2 do in these assays?
HPGD block: -9%

What do the screens show for `CC(=O)NC1C(=O)N=C(SCC(=O)NC(C)c2ccccc2)NC1=O` (configuration not stated)?
HPGD block: -5%

Results for COc1ccc(Cl)cc1NC(=O)C/C(C)=N/NC(=O)CC#N ?
HPGD block: -19%

How did Cc1ccc(S(=O)(=O)N(CC(=O)N2CCCCC2)c2cccc(C)c2)cc1 do in these assays?
HPGD block: -4%

How did COCc1cc(C)nc(SCC(=O)N2CCC(C)CC2)c1C#N do in these assays?
HPGD block: -16%

What do the screens show for `O=C(O)C(Sc1ccc(Cl)cc1)Sc1ccc(Cl)cc1`?
HPGD block: -13%

How did COc1ccccc1NC(=O)CSc1nnc(-c2ccccn2)n1Cc1ccco1 do in these assays?
HPGD block: -26%

What do the screens show for `O=C(CSc1nnc(-c2cccnc2)o1)Oc1ccccc1`?
HPGD block: -12%

Results for Cc1ccc(CN2CCN(Cc3ccc(C)o3)[C@@H](C)C2)o1 ?
HPGD block: -6%

How did O=C(CC1C(=O)N(c2ccccc2)C(=S)N1c1ccccc1)c1ccc(Br)cc1 (configuration not stated) do in these assays?
HPGD block: -10%

What do the screens show for `O=C(COC(=O)c1cc2c(s1)CCCC2)NCc1ccccc1Cl`?
HPGD block: -9%

Copied from above (3 entries):
What do the screens show for `CC(=O)NC1C(=O)N=C(SCC(=O)NC(C)c2ccccc2)NC1=O` (configuration not stated)?
HPGD block: -5%

Results for COc1ccc(Cl)cc1NC(=O)C/C(C)=N/NC(=O)CC#N ?
HPGD block: -19%

How did Cc1ccc(S(=O)(=O)N(CC(=O)N2CCCCC2)c2cccc(C)c2)cc1 do in these assays?
HPGD block: -4%

Next structures.
How did Cc1ccc2cc(CN(Cc3ccc4c(c3)OCO4)Cc3nnnn3Cc3ccco3)c(=O)[nH]c2c1 do in these assays?
HPGD block: -28%

Results for Cn1nnnc1SCC(=O)Nc1ccc(Br)cc1Cl ?
HPGD block: -16%

How did Cc1cccc(C)c1NC(=O)C1=C(O)c2ccccc2N(C)S1(=O)=O do in these assays?
HPGD block: -12%

How did CC(C)C[C@@H](N)C(=O)Nc1ccc2ccccc2c1 do in these assays?
HPGD block: -9%

Results for COc1ccc(CCNC(=O)CSc2ncn[nH]2)cc1 ?
HPGD block: -8%

How did CCc1ccccc1NC(=O)Cn1nc(C(F)(F)F)c2c1CCC2 do in these assays?
HPGD block: -2%

What do the screens show for `C#CC(=O)N(c1cc(OC)ccc1OC)C(C(=O)NC1CCCC1)c1cccs1` (configuration not stated)?
HPGD block: -12%

What do the screens show for `CCc1ccc(NC(=O)CSc2nnc(-c3n[nH]c4ccccc34)n2-c2ccccc2)cc1`?
HPGD block: -4%

What do the screens show for `CCOC(=O)CNC(=O)Nc1cc(C(C)(C)C)nn1-c1ccccc1`?
HPGD block: -5%

Results for CN(C)C(=S)c1ccc2ccccc2n1 ?
HPGD block: -5%

What do the screens show for `C=CC(C)(C)c1[nH]c2ccccc2c1C1=C(O)C(=O)C(c2c[nH]c3c(CC=C(C)C)cccc23)=C(O)C1=O`?
HPGD block: 25µM*

What do the screens show for `CCOc1ccc(Br)cc1S(=O)(=O)NCCN(C)C`?
HPGD block: -5%

Results for CCOC(=O)CNC(=O)CSc1nnnn1-c1ccc(C)c(C)c1 ?
HPGD block: -3%

How did COc1ccc(NC(=O)N2CCC3(CC2)CCN(C(=O)c2ccco2)CC3)cc1 do in these assays?
HPGD block: -3%

What do the screens show for `COc1cc(C)c(Cl)cc1S(=O)(=O)n1cnc(C)c1`?
HPGD block: 0%

How did COc1ccc(NC(=O)Nc2ccc(Cc3ccncc3)cc2)c(OC)c1 do in these assays?
HPGD block: 0%

Results for CC(NC(=O)COc1ccc(/C=N/NC(=O)C(=O)Nc2ccccc2Br)cc1)c1ccccc1 (configuration not stated) ?
HPGD block: inconclusive

Results for CCOC(=O)NC(NC(=O)OCC)C(=O)c1ccccc1 ?
HPGD block: -8%

How did CCOc1ccc2nc(SCC(=O)c3ccccc3)sc2c1 do in these assays?
HPGD block: -7%

Results for O=C(Nc1ccc(F)cc1)Nc1ccc(N2CCCC2)c(S(=O)(=O)Nc2ccccc2Cl)c1 ?
HPGD block: -18%

3 records picked at random from those above, as already listed:
Results for CC(NC(=O)COc1ccc(/C=N/NC(=O)C(=O)Nc2ccccc2Br)cc1)c1ccccc1 (configuration not stated) ?
HPGD block: inconclusive

What do the screens show for `CCOc1ccc(Br)cc1S(=O)(=O)NCCN(C)C`?
HPGD block: -5%

How did COc1ccc(NC(=O)N2CCC3(CC2)CCN(C(=O)c2ccco2)CC3)cc1 do in these assays?
HPGD block: -3%

Back to the main list, repeating the 3 entries before the break.
Results for CCOC(=O)NC(NC(=O)OCC)C(=O)c1ccccc1 ?
HPGD block: -8%

How did CCOc1ccc2nc(SCC(=O)c3ccccc3)sc2c1 do in these assays?
HPGD block: -7%

Results for O=C(Nc1ccc(F)cc1)Nc1ccc(N2CCCC2)c(S(=O)(=O)Nc2ccccc2Cl)c1 ?
HPGD block: -18%

Results for COc1ccccc1N1CCN(C(=O)Cn2nnc(-c3ccncc3)n2)CC1 ?
HPGD block: -7%

How did CCS(=O)(=O)N1CCCC(C(=O)NCc2ccccc2Cl)C1 (configuration not stated) do in these assays?
HPGD block: 6%

What do the screens show for `COc1ccccc1N1CCN(c2nc(C)nc3c2oc2ccccc23)CC1`?
HPGD block: inconclusive

Results for CN(C)S(=O)(=O)c1ccc(-c2ccccc2)cc1 ?
HPGD block: -9%

Results for Cc1c(NS(=O)(=O)c2ccc3c(c2)n(C)c(=O)n3C)c(=O)n(-c2ccccc2)n1C ?
HPGD block: -6%

Results for COc1ccc(-c2cc(=O)c3cc(OC)c(OC)cc3[nH]2)cc1 ?
HPGD block: inconclusive

Results for CCOC(=O)N1CCN(c2nc(=S)n(-c3ccccc3)c(C)c2C(C)=O)CC1 ?
HPGD block: -17%

What do the screens show for `O=C1c2ccccc2S(=O)(=O)N1CCCCN1CCN(c2ncccn2)CC1`?
HPGD block: -5%

How did Fc1ccc(-c2ccnc(=S)[nH]2)cc1 do in these assays?
HPGD block: 18µM*

How did Cc1ccc(O)c(-c2cc(-c3cccc(F)c3)n[nH]2)c1 do in these assays?
HPGD block: 16µM*

What do the screens show for `NC(=O)COc1ccc(C2c3c(oc4ccccc4c3=O)C(=O)N2CC2CCCO2)cc1` (configuration not stated)?
HPGD block: -7%

What do the screens show for `C/C(=N\OC(=O)c1ccc(Cl)cc1)c1nccs1`?
HPGD block: -7%

How did NC(=O)CC[C@@H]1NC(=O)[C@@H]2CCCN2C(=O)c2cc([N+](=O)[O-])cc(I)c2NCCC[C@@H](C(=O)NC(CC(=O)O)C(N)=O)NC1=O (some centres not stated) do in these assays?
HPGD block: -9%

What do the screens show for `CC(C)Oc1ccc(Br)cc1/C=N\NC(N)=S`?
HPGD block: -17%

What do the screens show for `CCn1c(Cc2ccccc2)nnc1SCC(=O)Nc1ccc2c(c1)OCCO2`?
HPGD block: -8%

How did Nc1ccc(C(=O)OCC(=O)N2CCc3ccccc3C2)cc1[N+](=O)[O-] do in these assays?
HPGD block: 13µM*

What do the screens show for `O=[N+]([O-])c1ccc(Nc2ccc(F)cc2)nc1`?
HPGD block: -12%

Results for Cc1nc2ccc(Cc3ccc4nc(C)[nH]c4c3)cc2[nH]1 ?
HPGD block: -10%

How did O=C(Cc1ccc(Cl)cc1)N/N=C1\CCCc2ccccc21 do in these assays?
HPGD block: -12%

What do the screens show for `CCCOC(=O)Cc1n[nH]c(=O)[nH]c1=O`?
HPGD block: -8%

How did COc1ccc(CNC(=O)/C=C/c2ccc(S(=O)(=O)NCc3ccco3)cc2)cc1OC do in these assays?
HPGD block: -9%

How did COc1cc2cc(C(=O)O)n(C)c2c(OC)c1OC do in these assays?
HPGD block: inconclusive

How did O=C(CSc1ncnc2sc3c(c12)CCCC3)N1CCC(c2noc3ccc(F)cc23)CC1 do in these assays?
HPGD block: -25%

How did CN(C)S(=O)(=O)c1cccc(C(=O)OCC(=O)c2ccc3c(c2)NC(=O)CO3)c1 do in these assays?
HPGD block: -23%

Results for C=CCOc1ccc2ccccc2c1/C=N/O ?
HPGD block: 2.5µM*

Results for CCn1cc([N+](=O)[O-])c(C(=O)Nc2c(C)nn(Cc3c(F)c(F)c(F)c(F)c3F)c2C)n1 ?
HPGD block: -12%

Results for C/C(=N\NS(=O)(=O)c1cccc([N+](=O)[O-])c1)c1cc2ccccc2o1 ?
HPGD block: -17%

How did COc1ccc(-c2cc(C(=O)N3CC4(C)CC3CC(C)(C)C4)no2)cc1 (configuration not stated) do in these assays?
HPGD block: 35µM*

What do the screens show for `CCOC(=O)c1cccc(NC(=O)CSc2nnc(-c3cccnc3)n2CC)c1`?
HPGD block: -10%

What do the screens show for `CC1=C(C(=O)OCc2ccccc2)C(c2ccc(Cl)cc2Cl)NC(=O)N1CCCC(=O)O` (configuration not stated)?
HPGD block: -13%

What do the screens show for `COCCNCC(=O)C12CC3CC(CC(C3)C1)C2`?
HPGD block: -3%

What do the screens show for `Nc1ccc(S(=O)(=O)c2cccc(N)c2)cc1`?
HPGD block: -11%

What do the screens show for `Cn1c(=O)c2c3c(sc2n2c(SCC(N)=O)nnc12)CC(C(C)(C)C)CC3` (configuration not stated)?
HPGD block: -13%

What do the screens show for `COc1ccc(C2C(C#N)=C(N)OC3=C2C(=O)CC(C)(C)C3)cc1Cn1nc(C)c([N+](=O)[O-])c1C` (configuration not stated)?
HPGD block: 1%

What do the screens show for `O=C(C1COc2ccccc2O1)N1CCN(c2ccccc2F)CC1` (configuration not stated)?
HPGD block: -7%

How did CCC(=O)N1CCN(c2ccc(NC(=O)c3cc4ccccc4o3)cc2)CC1 do in these assays?
HPGD block: -9%

How did Cc1cc(C(=O)N/N=C/c2ccco2)c2ccccc2n1 do in these assays?
HPGD block: -9%

Results for CCn1ncc(CNC(=O)c2cccc([N+](=O)[O-])c2)c1C ?
HPGD block: -2%

Results for COC(=O)c1[nH]c2cccc(C)c2c1NC(=O)CN1CCCc2ccccc21 ?
HPGD block: -17%

What do the screens show for `Cc1c(Br)c(=O)[nH]c(=O)n1COCc1ccccc1`?
HPGD block: -25%

Results for COc1ccc2nc3oc(C(=O)N4CCC(C(N)=O)CC4)cc3cc2c1 ?
HPGD block: inconclusive

What do the screens show for `CCOc1ccc(NC(=O)CN2C(=O)COc3ccc(Cl)cc32)cc1`?
HPGD block: -10%

Results for Nc1ccc(C(=O)OCc2nc3ccccc3[nH]2)cc1 ?
HPGD block: -12%

What do the screens show for `Cc1cc(C)nc(NC(=O)c2ccc(Cl)c(Cl)c2)n1`?
HPGD block: -7%

How did COc1ccc(NC(=O)Cn2c(=O)n(CC(=O)NCc3ccco3)c(=O)c3ccccc32)cc1OC do in these assays?
HPGD block: -5%

How did Cc1ccc(S(=O)(=O)NCC(=O)OC(C)C(=O)Nc2ncc(Cl)cc2Cl)cc1 (configuration not stated) do in these assays?
HPGD block: -11%

How did Clc1ccc(-c2nn3c(-c4ccncc4)nnc3s2)c(Cl)c1 do in these assays?
HPGD block: -18%

How did Cn1c(=O)cc(OCCCC(=O)N2CCN(Cc3ccc4c(c3)OCO4)CC2)c2ccccc21 do in these assays?
HPGD block: -8%

Results for O=C(NCCc1csc(-c2ccc(C(F)(F)F)cc2)n1)c1cccs1 ?
HPGD block: -20%

Assay outcomes as filed in PubChem BioAssay.

A portion of the library. The share of hits here may be higher or lower than overall.
